eIF4H inh: inhibitors of RNA binding by human eIF4H | AID 2012 | inhibition, % at 35 µM | 0.94% of 290,000 active | Q15056 | eIF4H fluorescence polarization binding assay;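 active = 50% or more with normal probe brightness, or confirmed in later tests; inconclusive = above 50% with abnormal brightness, or retests that disagree; inactive = below 50% or failed in later tests; about a fifth of its hits are not listed in these tables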;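 also: calls also rest on retests at 20 µM and on dose response follow-up; 0% = protein and probe with vehicle and 100% = probe without protein; strong numbers were not always called active; many hits fall short of the cut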
Rce1 inh: inhibitors of yeast Ras-converting enzyme; Q03530; calls only; 0.27% of 290,000 active; yeast membranes, quenched prenylated peptide cleavage fluorescence;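 active = fall in fluorescence gain of 50% or more versus controls, with final raw signal at or below 3038400; inconclusive = same 50% fall but final raw signal above 3038400; inactive = fall in fluorescence gain under 50%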;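 also: plate controls were neutral control wells for no effect and wells lacking membranes for full effect; tested at 10 µM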
HIV Env fusion: inhibitors of HIV Env-mediated cell fusion | HeLa-JRFL Env/CEM21 cell fusion, luciferase | inhibition, % at 12.3 µM | 1.1% of 360,000 active | AID 651610;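 active = mean replicate inhibition score of at least 50 and every replicate individually at or above 50; inconclusive = only one of the two criteria met; inactive = mean below 50 and not all replicates reaching 50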;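 also: 0% = plate neutral controls and 100% = maraviroc near 300 nM; one replicate is shown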
PABP polyA inh: blocks human PABP binding to poly(A) RNA; 1% of 290,000 active; fluorescence polarization; P11940; inhibition, % at 35 µM; AID 2014;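 active = 50% or more with normal probe brightness, or confirmed in later tests; inconclusive = above 50% with abnormal brightness, or retests that disagree; inactive = below 50% or failed in later tests; about a fifth of its hits are not listed in these tables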;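 also: calls also rest on retests at 20 µM and on dose response follow-up; controls were probe without protein and protein plus probe with vehicle; some compounds called inactive have numbers as strong as hits; many hits fall short of the cut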
Target sequence (P11940 whole entry, looked up): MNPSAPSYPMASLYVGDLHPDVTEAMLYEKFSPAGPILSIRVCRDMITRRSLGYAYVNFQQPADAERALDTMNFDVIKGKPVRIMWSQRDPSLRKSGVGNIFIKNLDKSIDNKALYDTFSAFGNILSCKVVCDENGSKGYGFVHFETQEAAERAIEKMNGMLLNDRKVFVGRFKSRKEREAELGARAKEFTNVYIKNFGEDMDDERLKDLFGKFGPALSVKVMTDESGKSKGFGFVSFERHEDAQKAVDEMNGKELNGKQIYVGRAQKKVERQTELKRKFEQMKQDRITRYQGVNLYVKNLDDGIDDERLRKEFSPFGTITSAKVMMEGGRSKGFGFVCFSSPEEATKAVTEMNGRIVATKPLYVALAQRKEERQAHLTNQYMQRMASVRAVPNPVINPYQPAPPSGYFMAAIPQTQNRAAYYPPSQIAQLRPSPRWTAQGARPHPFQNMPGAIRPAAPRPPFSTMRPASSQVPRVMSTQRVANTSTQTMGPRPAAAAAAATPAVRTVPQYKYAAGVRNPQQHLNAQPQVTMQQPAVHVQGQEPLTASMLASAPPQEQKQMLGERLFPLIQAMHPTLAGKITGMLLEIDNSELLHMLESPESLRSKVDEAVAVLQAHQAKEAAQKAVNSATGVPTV
CSC inhib: blocks cancer stem cells | 1.1% of 300,000 active | cancer stem cell-like cells viability, luminescence | inhibition, % at 7.5 µM | AID 2717;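 active = mean at 75% or more and at least half the replicates too; inconclusive = mean and replicates disagree; tested in HMLE shEcad cells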;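 also: 0% = median of negative and 100% = median of positive control wells; the first replicate is given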
UUG fidelity: yeast start codon fidelity modulation; S. cerevisiae UUG-firefly luciferase reporter, luminescence/redox ratio; activity score, % at 18.7 µM; 0.13% of 350,000 active; AID 602363;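 active = replicate mean at a twofold rise or more, about +100% in these data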;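 also: firefly luciferase made from a UUG start codon reports start codon fidelity; reporter light over untreated wells divided by growth signal over untreated wells; some hits fall short of that in this replicate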
MT1-MMP act inh: MT1-MMP (human) activation inhibition | P50281 | HT1080 RFP-PRO-GFP cells, GFP/RFP ratio fluorescence, overnight; percent of plate control window, DMSO zero | GFP/RFP ratio change, % at 20 µM | 0.061% of 360,000 active | AID 651647;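 active = GFP/RFP ratio change of at least 30% with cell ATP level not reduced by more than half and red fluorescence within 50% of control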; also: strong numbers were not always called active
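Assay system – RFP-PRO-GFP reporter HT1080 cells · Compound dosing – single dose of 20 µM compound, 1% DMSO final · Incubation – overnight compound exposure at 37 °C · Measure – GFP/RFP fluorescence ratio · Benchmarks – DMSO wells and RFP-L50D-GFP cells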
eIF4H inh retest: further read-out of eIF4H inh, marked with its call; inhibition, %; compound at 20 µM; confirmation average;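 mean of two retest wells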
PABP polyA inh retest: also measured in PABP polyA inh; calls as there; inhibition, %; compound at 20 µM; confirmation repeats;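 mean of two retest wells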
MT1-MMP act inh RFP: second read-out of MT1-MMP act inh, no call of its own (marks repeat the call); RFP signal change, %; measured here: RFP expression control read;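 0 = vehicle wells; hits needed this value within 50% of zero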
* = called active by the depositor; i = inactive; ? = inconclusive; / = no result given; & = joins results of further samples.

SMILES | eIF4H inh | Rce1 inh | HIV Env fusion | PABP polyA inh | CSC inhib | UUG fidelity | MT1-MMP act inh | MT1-MMP act inh RFP | others
Cc1cccc(/C(N)=N/OC(=O)C23CC4CC(CC(C4)C2)C3)c1 | 1 | i | -26 | -2 | 37 | / | 3 | 1
CCOc1ccc2oc(C(=O)N3CCN(c4ccccc4OCC)CC3)c(C)c2c1 | / | i | 0 | / | 21 | / | 0 | 2
COc1ccc(CCNC(=S)N2CCN(S(=O)(=O)c3ccc(C)cc3)CC2)cc1 | / | i | 3 | / | 2 | / | 4 | -5
O=C(NNC(=S)NCCc1ccccc1)c1ccc(Br)s1 | -8 | i | 9 | 15 | 5 | / | 2 | -7
CCOC(=O)c1c(-c2ccc(OC)cc2)csc1NC(=O)CSc1ccccc1 | -7 | i | 12 | -6 | -4 | -19 | -3 | -9
CC(Sc1nc2ccccc2c(=O)n1CC1CCCO1)C(=O)Nc1ccc(S(N)(=O)=O)cc1 (stereo unspecified) | / | i | 1 | / | -2 | -2 | -3 | 0
Cc1cc(OC(C)C(=O)NCCCN2CCOCC2)c2c(C)c(C)c(=O)oc2c1 (stereo unspecified) | -2 | i | -19 | 6 | -9 | -21 | 2 | 3
CCOC(=O)c1ccc2c(c1)n(CC)c(/C=C/N(C)c1ccccc1)[n+]2CC | -4 | i | 19 | 2 | -12 | -7 | 5 | -15
O=C(Nc1cc(-c2ccccc2)[nH]n1)c1ccc(Cl)cc1 | -6&1 | i | -21 | -12&-1 | 60 | -10 | -1 | -6
CSc1ccc(/C=N/N(C)S(=O)(=O)c2ccc(C)cc2)cc1 | -10 | i | 25 | 3 | 12 | -10 | 3 | -6
CCN(CC)CCN1C(=O)C(=O)/C(=C(/O)c2ccncc2)C1c1ccccc1F (stereo unspecified) | 0 | i | / | 2 | -3 | -9 | 3 | 4
Cc1ccc(N2CC(NS(=O)(=O)c3cccs3)CC2=O)cc1 (stereo unspecified) | / | i | 7 | / | / | -15 | -2 | -5

The final 3 records of the section above come first, to join the parts.
SMILES | eIF4H inh | Rce1 inh | HIV Env fusion | PABP polyA inh | CSC inhib | UUG fidelity | MT1-MMP act inh | MT1-MMP act inh RFP | others
CSc1ccc(/C=N/N(C)S(=O)(=O)c2ccc(C)cc2)cc1 | -10 | i | 25 | 3 | 12 | -10 | 3 | -6
CCN(CC)CCN1C(=O)C(=O)/C(=C(/O)c2ccncc2)C1c1ccccc1F (stereo unspecified) | 0 | i | / | 2 | -3 | -9 | 3 | 4
Cc1ccc(N2CC(NS(=O)(=O)c3cccs3)CC2=O)cc1 (stereo unspecified) | / | i | 7 | / | / | -15 | -2 | -5
C/C(=N/Nc1ncc(Br)cn1)c1ccc([N+](=O)[O-])cc1 | 4 | i | -13 | 10 | -7 | 0 | 0 | -3
COC(=O)c1ccccc1NC(=O)c1sc(N)nc1C | -5 | / | / | 61 | 0 | 4 | -1 | 0 | eIF4H inh retest=-6;PABP polyA inh retest=5
O=C(CSc1nnc(Nc2ccccc2)s1)NC1CCCC1 | / | / | 1 | / | -12 | -8 | 0 | -2
Cc1ccc(C(=O)C(C)OC(=O)c2n[nH]c(=O)c3ccccc23)cc1 (stereo unspecified) | 2 | i | / | -6 | -3 | 19 | 3 | 2
O=C(NCCN1CCCCCC1)c1ccc(N2CCCC2=O)cc1 | 5 | i | / | 12 | -11 | 15 | -5 | -4
CCc1ccc(NC(=O)c2noc3c2CCCCC3)cc1 | -7 | i | -175 | 4 | -6 | -21 | 13 | -2
COP(=O)(OC)c1nc(-c2cccc3ccccc23)oc1NCCc1ccccc1 | -2 | i | -11 | -1 | 6 | / | -9 | -6
O=C(c1ccccc1)c1c2c(cc3sc4ccccc4[n+]13)-c1cccc3cccc-2c13 | ? | / | 51 | 1 | 64 | 21 | -29 | 80
O=C(NCc1nnnn1-c1ccc(Cl)cc1)C1CC(=O)N(c2ccc(F)cc2)C1 (stereo unspecified) | / | / | -10 | / | / | 0 | -1 | 4
Cc1cc(C)c(C(N)=O)c(SCC(=O)c2ccc(Cl)cc2)n1 | -4 | i | / | 2 | -4 | -16 | 1 | -3
CC(=O)N/N=C(\C)CC(=O)NC(C)(C)C | -3 | i | 3 | 3 | -7 | / | -4 | -1
Nc1ccc(C23CC4CC(CC(C4)C2)C3)cc1 | -3 | i | 6 | 4 | -6 | / | -3 | 3
O=C(COC(=O)c1cc(Cl)cc(Cl)c1)NCc1ccco1 | / | / | / | / | -19 | -20 | 0 | 1
O=C(CCCC(=O)NCCc1ccccc1)NCCc1ccccc1 | -6 | i | -2 | -5 | 10 | / | 2 | 3
COc1ccc(/C=C2\SC(=S)N(c3cccnc3)C2=O)cc1 | 2 | i | -5 | -5 | -7 | / | 3 | 1
Cc1c[n+](CC(=O)c2ccccc2)cs1 | -4 | i | 9 | 5 | -5 | -3 | -1 | 3
Cn1c(N)c(C(=O)CSc2nc(C3CC3)n(-c3ccccc3)n2)c(=O)[nH]c1=O | / | / | 3 | / | / | -20 | -2 | 2
COc1ccccc1-c1coc2c(CN(C)C)c(O)ccc2c1=O | -7 | i | 10 | -4 | -11 | -8 | 7 | 2
COc1ccccc1CNCc1cc(Br)ccc1OC | -3 | i | -2 | -18 | 3 | / | -2 | -2
CC(=O)OC(C(=O)Nc1ccccc1)C(C)S(=O)(=O)c1ccccc1 (stereo unspecified) | -3 | i | / | -6 | -4 | -3 | 0 | -2
CCN(CC)S(=O)(=O)c1cc(NC(=O)[C@@H](NC(N)=O)C(C)C)ccc1C | -5 | i | 6 | -2 | 16 | / | 0 | 4
CCCCN(CCCC)CCn1cnc2c([nH]c3ccc(OC)cc32)c1=O | -10 | i | -47 | -21 | 6 | -7 | 1 | -5
CCOC(=O)c1cnc(SCC(=O)Nc2ccccc2C(=O)OC)nc1N | -4 | i | 46 | 16 | -5 | 0 | -1 | -2
COc1ccccc1N1CCN(C(=O)CCCCCn2c(=O)[nH]c3ccsc3c2=O)CC1 | -14 | i | 2 | 5 | -1 | 7 | -6 | 0
CCN1CCc2c(sc(NC(=O)c3ccc(S(=O)(=O)N4CCCCCC4)cc3)c2C(=O)NC)C1 | -4 | i | -4 | -20 | 38 | -5 | -51 | 1
CN(C)/C=C(\C#N)C(=O)N/N=C/c1ccc(F)cc1 | 11 | i | 7 | -1 | -5 | / | 2 | 3
CCCC(=O)N/C(N)=N/c1nc(C)c2cc(C)ccc2n1 | -10 | i | -8 | -7 | 11 | -16 | -4 | -5
Cc1ccc(C2NS(=O)(=O)N=C2N)cc1 (stereo unspecified) | -10 | i | 21 | 1 | 3 | -21 | 5 | -1
O=C(Nc1ccccc1)N1CCN(Cc2ccccc2)CC1 | 11 | i | i | 21 | -8 | -40 | -3 | 3
O=C(Nc1cc(S(=O)(=O)N2CCCCC2)ccc1Oc1ccccc1)C1=COCCO1 | -9 | i | -15 | -12 | 3 | -14 | 3 | 1
O=C1N[C@@H](Cc2ccccc2)C(=O)N2CCCC12 (stereo partly specified) | / | / | 13 | / | / | -14 | 5 | 3
COc1ccc(C(C#N)N2CCCCC2)cc1OC (stereo unspecified) | -2 | i | / | 3 | -7 | -18 | 4 | 5
COc1cccc(/C=C2/NC(=O)N(CC(=O)Nc3ccc(C)cc3)C2=O)c1OCc1cccc(C(=O)O)c1 | 31 | i | 13 | 7 | / | -9 | -4 | 3
O=[N+]([O-])c1ccccc1Oc1ccc(C(F)(F)F)cn1 | -2 | i | -8 | -11 | -4 | / | 0 | 6
CCOC(=O)c1ccc(NC(c2ccc(N(C)C)cc2)P(=O)(OC(C)C)OC(C)C)cc1 (stereo unspecified) | 2 | i | -7 | -11 | 0 | 9 | -9 | -5
CCN(CC(=O)NCc1ccc(Cl)cc1)C(=O)C1CCN(S(=O)(=O)c2ccc(OC)c(OC)c2)CC1 | / | i | -19 | / | -7 | / | -2 | -2
Cc1ccc2nc(SCC(=O)Nc3nonc3N)[nH]c2c1 | 0 | i | -13 | 0 | / | / | 6 | 4
O=S(=O)(O)c1ccc(N=Nc2ccccc2)cc1 | 4 | i | -7 | 12 | -9 | -4 | 2 | 2
COc1ccc(/C=C/C(=O)NC(=S)Nc2ccc(C(=O)O)cc2)cc1 | 5 | i | 3 | 12 | -12 | -24 | 3 | -5
COc1cc(NS(=O)(=O)c2ccc(N/C=C(\C#N)c3nc4ccccc4o3)cc2)nc(OC)n1 | -1 | i | / | 9 | 0 | 0 | 12 | 4
COc1ccc(/C=N/NC(=S)Nc2ccccc2[N+](=O)[O-])cc1O | -15 | i | -130 | -12 | 89* | -58 | -1 | -6
CCCCN(C(=O)c1cc(S(=O)(=O)N2CCOCC2)ccc1Cl)c1c(N)n(CC(C)C)c(=O)[nH]c1=O | / | i | 59* | / | -12 | / | -1 | 0
C=CCC(NCc1ccccc1)c1ccc(OC)cc1 (stereo unspecified) | 4 | i | 32 | 11 | -4 | -25 | -4 | 0
CN(C(=O)c1ccccc1)c1nc2ccccc2s1 | -7 | i | / | -4 | 9 | -71 | -1 | -1
CN1CCN(C(=O)/C=C/c2ccc(Cl)cc2)CC1 | -5 | i | 1 | 4 | -17 | -1 | 0 | 4
Oc1[nH]c2ccccc2c1N=Nc1nncc2ccccc12 | -13 | i | -30 | 1 | 0 | -3 | 7 | 5
Cc1cc(C(=O)CSc2nnnn2C)c(C)n1CCc1ccc(Cl)cc1 | 16 | / | -23 | 89 | -9 | -9 | -7 | -7 | eIF4H inh retest=12;PABP polyA inh retest=17
CCc1nc2ccc(C(=O)N(C)C(C)C)cn2c1N(CC)Cc1cccc(Br)c1 | / | / | -18 | / | / | -4 | 6 | 0
Cc1cc(C(=O)NNC(=O)/C=C/c2ccc(F)cc2)c(C)o1 | -7 | i | -7 | 3 | 1 | -21 | 3 | 4
Nc1nonc1-c1nc2ccccc2n1CC(=O)NC1CCCC1 | -15 | i | / | 1 | -6 | -21 | 8 | 5
CCOc1ccc(C(=O)Nc2ccc(NC(=S)NC(=O)CC)cc2)cc1Cl | 8 | i | -7 | 16 | 2 | / | 2 | 2

Looked up by compound from above, 7 records:
SMILES | eIF4H inh | Rce1 inh | HIV Env fusion | PABP polyA inh | CSC inhib | UUG fidelity | MT1-MMP act inh | MT1-MMP act inh RFP | others
Oc1[nH]c2ccccc2c1N=Nc1nncc2ccccc12 | -13 | i | -30 | 1 | 0 | -3 | 7 | 5
CCc1nc2ccc(C(=O)N(C)C(C)C)cn2c1N(CC)Cc1cccc(Br)c1 | / | / | -18 | / | / | -4 | 6 | 0
Cc1cc(C(=O)NNC(=O)/C=C/c2ccc(F)cc2)c(C)o1 | -7 | i | -7 | 3 | 1 | -21 | 3 | 4
Cc1ccc2nc(SCC(=O)Nc3nonc3N)[nH]c2c1 | 0 | i | -13 | 0 | / | / | 6 | 4
CN1CCN(C(=O)/C=C/c2ccc(Cl)cc2)CC1 | -5 | i | 1 | 4 | -17 | -1 | 0 | 4
COc1ccc(/C=N/NC(=S)Nc2ccccc2[N+](=O)[O-])cc1O | -15 | i | -130 | -12 | 89* | -58 | -1 | -6
C=CCC(NCc1ccccc1)c1ccc(OC)cc1 (stereo unspecified) | 4 | i | 32 | 11 | -4 | -25 | -4 | 0

Compound activity from PubChem BioAssay.

Not a hit list, and some 2.9% of all compounds hit somewhere here.
